# Bioassay records as filed in PubChem.
# DUX4 inh – DUX4-mediated transcription inhibition. 293T-iDUX4 ZSCAN4-Gaussia luciferase reporter, 24 h; active compounds read low. activity change, negative = inhibition, % (concentration not given with the values). 37,000 tested, 0.8% active. AID 1224904;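 active means -10% or lower and over 25 points stronger than a control reporter; inconclusive means -10% or lower with a smaller gap; inactive means above -10%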;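 further: 0% = median of neutral control wells and -100% = median of positive control wells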
# DUX4 inh difference – recorded beside DUX4 inh, whose call it bears; Gaussia minus Italica difference, %; measured here: selective DUX4 reporter inhibition;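 worked out from the two reporters; negative = selective loss of the DUX4 reporter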
# DUX4 inh control – further read-out of DUX4 inh, marked with its call; activity change, negative = inhibition, %; measured here: Italica tet-on control reporter;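 0 = neutral control and -100 = positive control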
# * hit, by the source's call; ? = inconclusive; . = no result given. Not all compounds are listed; count on the stated rates, not on these rows.
SMILES,DUX4 inh,DUX4 inh difference,DUX4 inh control
COc1ccc2c3c(n(C)c2c1)[C@@H](CO)NCC31CN(C(=O)Nc2ccc(F)cc2F)C1,17,0,18
COCC(=O)N1CC2(CCN(C(=O)NC(C)C)CC2)c2c(n(C)c3cc(OC)ccc23)[C@@H]1CO,17,-1,17
CCCNC(=O)N1[C@H](CO)[C@@H](c2ccc(-c3ccccc3)cc2)[C@@H]1CNC(C)=O,0,-3,2.5
O=C(N[C@@H]1CC[C@@H](CCn2cc(-c3ccccn3)nn2)O[C@H]1CO)c1ccncc1,4,3,0.8
O=C(C[C@H]1C=C[C@@H](NC(=O)Nc2ccccc2F)[C@H](CO)O1)NCc1ccc(-c2ccccc2)cc1,4,1,3.2
COc1ccccc1CNC(=O)C[C@@H]1C[C@H]2c3cc(NC(=O)c4ccc5c(c4)OCO5)ccc3O[C@H]2[C@H](CO)O1,?,.,.
O=S(=O)(c1ccccc1)N1CCCCN2[C@H](CO)[C@@H](c3ccc(-c4ccccc4)cc3)[C@@H]2C1,-5,-5,0.1
C[C@@H]1CN([C@@H](C)CO)C(=O)CCCn2nncc2CO[C@@H]1CN(C)C(=O)Nc1ccnc(N2CCOCC2)c1,1,-1,1.6
CCCN1[C@@H]2c3ccc(-c4ccc(C(=O)N(C)C)cc4)c(=O)n3C[C@@H]2[C@@H](CO)[C@@H]1C(=O)NCCOC,-1,-5,3.5
C/C=C/c1ccc([C@@H]2[C@@H](CNC(=O)CC)N(Cc3ccccn3)[C@H]2CO)cc1,-3,-3,-0.1
CCS(=O)(=O)N1CC2(CN(C(=O)c3ccc(F)cc3)[C@H](CO)c3[nH]c4cc(OC)ccc4c32)C1,7,6,1.9
C[C@H](O)C#Cc1ccc2c(c1)O[C@H](CN(C)C(=O)Cc1ccccn1)[C@@H](C)CN([C@@H](C)CO)S2(=O)=O,2,0,1.3
CCCC(=O)Nc1ccc2c(c1)C(=O)N(C)C[C@H](OC)[C@@H](C)CN(C(=O)C1CCCC1)[C@H](C)CO2,-2,-1,-0.6
COCC(=O)N1[C@H](C#N)[C@@H](c2ccccc2C2=CCCCC2)[C@@H]1CO,4,4,-0.5
O=C(Nc1cc(F)ccc1F)N1C[C@H]2[C@@H](c3ccccc31)[C@H](CO)N2C(=O)c1ccccc1,0,-5,4.9
COc1ccc2c3c(n(C)c2c1)[C@H](CO)N(C(=O)c1ccccc1)CC31CN(C)C1,?,.,.
C[C@@H]1CCCCO[C@@H](CN(C)CC2CCCCC2)[C@@H](C)CN([C@H](C)CO)C(=O)c2cc(NC(=O)C3CCCCC3)ccc2O1,3,3,-0.6
CC(=O)NC[C@@H]1[C@@H](c2ccc(C3=CCCCC3)cc2)[C@@H](CO)N1C(=O)C1CC1,-1,-4,3.5
C[C@@H]1CN([C@H](C)CO)C(=O)c2c(c3ccccc3n2C)-c2ccccc2CO[C@H]1CN(C)Cc1cccc(C(F)(F)F)c1,?,.,.
C[C@@H]1CN([C@@H](C)CO)C(=O)c2cc(NC(=O)CCC(F)(F)F)ccc2O[C@@H](C)CCCCO[C@@H]1CN(C)C(=O)Nc1cccc2ccccc12,-3,-1,-1.8
CC=Cc1ccc2n(c1=O)C[C@H]1[C@H](CO)[C@@H](C(=O)NCCC)[C@@H]2N1S(=O)(=O)c1cn(C)cn1 (mixture of isomers),1,1,0.6
N#C[C@@H]1[C@@H](c2ccc(-c3cccc(F)c3)cc2)[C@@H](CO)N1c1nc(-c2ccccc2)cs1,-2,-5,3.3
C[C@@H]1CN([C@@H](C)CO)C(=O)c2cc(NC(=O)Nc3ccccc3)ccc2O[C@@H](C)CCCCO[C@H]1CN(C)C(=O)Nc1ccccc1,1,2,-1.3
C[C@@H]1CCCCO[C@H](CN(C)Cc2ccc3c(c2)OCO3)[C@@H](C)CN([C@H](C)CO)C(=O)c2cc(N(C)C)ccc2O1,-1,-1,0.1
CCC(=O)NC[C@H]1[C@@H](c2ccc(C3=CCCC3)cc2)[C@@H](CO)N1C(=O)CN(C)C,-1,-2,0.7

# Next section.
SMILES,DUX4 inh,DUX4 inh difference,DUX4 inh control
COc1cccc(CN2[C@H](CO)[C@H](c3ccccc3)C23CN(Cc2ccccc2OC)C3)c1,?,.,.
N#C[C@H]1[C@H](c2ccc(C3=CCCC3)cc2)[C@H](CO)N1C(=O)C1CCC1,-2,-1,-0.8
O=C(N[C@H]1C=C[C@@H](CC(=O)N2CCN(c3ccccc3)CC2)O[C@H]1CO)c1ccccc1,5,0,4.8
CC(C)NC(=O)NCC[C@H]1CC[C@@H](NC(=O)c2ccc(F)cc2)[C@@H](CO)O1,6,2,3.7
CS(=O)(=O)N(CC1CCC1)C[C@H]1N[C@H](CO)[C@H]1c1ccccc1,-1,-2,1.0
C[C@@H](O)C#Cc1ccc2c(c1)O[C@@H](CN(C)Cc1ccc(-c3ccccc3)cc1)[C@@H](C)CN([C@@H](C)CO)S2(=O)=O,-2,-2,0.3
CCCNC(=O)C[C@H]1C[C@@H]2c3cc(NC(=O)COC)ccc3O[C@@H]2[C@H](CO)O1,5,0,4.9
C[C@@H]1CN([C@@H](C)CO)C(=O)c2c(c3ccccc3n2C)-c2ccccc2CO[C@@H]1CN(C)Cc1cccc(C(F)(F)F)c1,?,.,.
CCCNC(=O)[C@H]1[C@H](CO)[C@H]2Cn3c(ccc(-c4cccc(C(=O)N(C)C)c4)c3=O)[C@@H]1N2,2,-2,4.5
CN1c2ccc(-c3cccc(C#N)c3)cc2[C@@H]2[C@@H](CCN2S(=O)(=O)c2ccc(F)cc2)[C@@H]1CO,?,.,.
C[C@H]1CN([C@@H](C)CO)C(=O)Cc2cc(NC(=O)CCN3CCOCC3)ccc2O[C@H]1CN(C)Cc1ccc(C(=O)O)cc1,-5,-2,-2.6
COc1cccc(S(=O)(=O)Nc2ccc3c(c2)[C@H]2C[C@@H](CC(=O)NCc4cccc(F)c4)O[C@@H](CO)[C@H]2O3)c1,0,1,-1.3
COc1ccc2c3c(n(C)c2c1)[C@@H](CO)N(CC1CC1)CC31CN(C(=O)Nc2ccc(F)cc2F)C1,?,.,.
O=C(C[C@@H]1C[C@@H]2c3cc(NC(=O)Nc4ccccc4F)ccc3O[C@@H]2[C@H](CO)O1)NCC(F)(F)F,0,-11,11
COc1cccc(S(=O)(=O)N2C[C@@H](O)COC[C@@H]3O[C@@H](CC(=O)N4CCN(c5ccccc5)CC4)CC[C@H]32)c1,-3,-4,0.4
CS(=O)(=O)N1CCCCN2[C@@H](CO)[C@H](c3ccc(C4=CCCC4)cc3)[C@@H]2C1,30,15,15
O=C(C[C@@H]1CC[C@@H](NC(=O)Nc2ccc(F)cc2)[C@H](CO)O1)NCCN1CCCC1,11,8,2.7
CCNC(=O)C[C@@H]1CC[C@@H]2[C@H](COC[C@@H](O)CN2Cc2ccccc2F)O1,5,-1,5.8
N#C[C@@H]1[C@H](c2ccccc2)[C@H](CO)N1C(=O)Cc1ccccn1,-1,4,-4.3
CN(C)C(=O)[C@@H]1[C@@H](CO)[C@@H]2Cn3c(ccc(-c4cccc(F)c4)c3=O)[C@H]1N2CCc1ccccc1,5,8,-3.2
CO[C@H]1CN(C)C(=O)c2ccc(NC(=O)C3CC3)cc2OC[C@@H](C)N(Cc2nccs2)C[C@H]1C,1,1,0.3
CO[C@@H]1CN(C)C(=O)c2cc(NS(C)(=O)=O)ccc2OC[C@@H](C)N(C(=O)NC(C)C)C[C@@H]1C,1,0,0.9
CC=Cc1ccc2n(c1=O)C[C@@H]1[C@@H](CO)[C@H](C(=O)NCC3CCCCC3)[C@H]2N1C(C)=O (mixture of isomers),-1,-2,1.4
COCCNC(=O)C[C@@H]1CC[C@H]2[C@@H](COC[C@@H](O)CN2C(=O)Nc2ccccc2OC)O1,4,4,0.7
COc1cccc(-c2ccc([C@H]3[C@H]4CN(C(=O)C5CCOCC5)CC(=O)N4[C@H]3CO)cc2)c1,9,4,4.9

# 11 successive entries already listed, for reference:
SMILES,DUX4 inh,DUX4 inh difference,DUX4 inh control
CCC(=O)NC[C@H]1[C@@H](c2ccc(C3=CCCC3)cc2)[C@@H](CO)N1C(=O)CN(C)C,-1,-2,0.7
COc1cccc(CN2[C@H](CO)[C@H](c3ccccc3)C23CN(Cc2ccccc2OC)C3)c1,?,.,.
N#C[C@H]1[C@H](c2ccc(C3=CCCC3)cc2)[C@H](CO)N1C(=O)C1CCC1,-2,-1,-0.8
O=C(N[C@H]1C=C[C@@H](CC(=O)N2CCN(c3ccccc3)CC2)O[C@H]1CO)c1ccccc1,5,0,4.8
CC(C)NC(=O)NCC[C@H]1CC[C@@H](NC(=O)c2ccc(F)cc2)[C@@H](CO)O1,6,2,3.7
CS(=O)(=O)N(CC1CCC1)C[C@H]1N[C@H](CO)[C@H]1c1ccccc1,-1,-2,1.0
C[C@@H](O)C#Cc1ccc2c(c1)O[C@@H](CN(C)Cc1ccc(-c3ccccc3)cc1)[C@@H](C)CN([C@@H](C)CO)S2(=O)=O,-2,-2,0.3
CCCNC(=O)C[C@H]1C[C@@H]2c3cc(NC(=O)COC)ccc3O[C@@H]2[C@H](CO)O1,5,0,4.9
C[C@@H]1CN([C@@H](C)CO)C(=O)c2c(c3ccccc3n2C)-c2ccccc2CO[C@@H]1CN(C)Cc1cccc(C(F)(F)F)c1,?,.,.
CCCNC(=O)[C@H]1[C@H](CO)[C@H]2Cn3c(ccc(-c4cccc(C(=O)N(C)C)c4)c3=O)[C@@H]1N2,2,-2,4.5
CN1c2ccc(-c3cccc(C#N)c3)cc2[C@@H]2[C@@H](CCN2S(=O)(=O)c2ccc(F)cc2)[C@@H]1CO,?,.,.

# Further entries follow:
SMILES,DUX4 inh,DUX4 inh difference,DUX4 inh control
Cc1ccc(S(=O)(=O)N2C[C@H](O)COC[C@H]3O[C@@H](CC(=O)NCc4ccc(Cl)c(Cl)c4)CC[C@@H]32)cc1,?,.,.
O=C(c1ccc(F)cc1)N1C[C@H]2[C@@H](c3ccccc31)[C@@H](CO)N2C(=O)c1ccc(F)cc1,2,8,-5.9
C/C=C/c1ccc([C@H]2[C@@H](CO)N(Cc3cccc(F)c3)C23CN(C(=O)CC)C3)cc1,4,7,-3.3
O=C1C[C@@H](c2ccccc2)C(=O)N[C@@H](c2ccccc2)C/C=C\C[C@@H](c2ccccc2)N1,3,-6,9.1
CC(=O)N1[C@H](CO)[C@@H](c2ccccc2)[C@@H]1CN(C(=O)c1ccc(F)cc1)C(C)C,1,4,-2.5
Cc1noc(C)c1NC(=O)N(C)C[C@H]1Oc2ccc(NC(=O)Nc3ccc(C(F)(F)F)cc3)cc2C(=O)N([C@H](C)CO)C[C@H]1C,2,0,1.9
CCCN1[C@@H]2c3ccc(-c4ccccc4F)c(=O)n3C[C@@H]2[C@@H](CO)[C@@H]1C(=O)N1CCN(C)CC1,3,0,2.8
CN(C)CC(=O)Nc1ccc2c(c1)[C@@H]1C[C@@H](CC(=O)NCc3ccncc3)O[C@@H](CO)[C@@H]1O2,5,3,1.7
C/C=C/c1ccc2c(c1)O[C@@H](CN(C)CC1CCOCC1)[C@@H](C)CN([C@H](C)CO)S2(=O)=O,5,0,5.1
O=C(Nc1ccc(F)cc1)N1C[C@H]2[C@@H](c3ccccc31)[C@H](CO)N2C(=O)Cc1cccnc1,3,-2,5.2
C[C@@H]1CN([C@H](C)CO)C(=O)Cc2cc(NS(=O)(=O)c3cccs3)ccc2O[C@H]1CN(C)CC1CCCCC1,-7,-7,0.4
CCC(=O)Nc1ccc2c(c1)OC[C@@H](C)N(Cc1ccccc1)C[C@H](C)[C@@H](OC)CN(C)C2=O,0,-7,6.7
Cc1ccccc1S(=O)(=O)N(C)C[C@H]1OCc2cnnn2CCCC(=O)N([C@H](C)CO)C[C@H]1C,-6,-3,-3.2
C[C@H]1CCCCO[C@H](CN(C)Cc2ccncc2)[C@@H](C)CN([C@@H](C)CO)C(=O)c2cc(NC(=O)Cc3ccccc3)ccc2O1,4,2,1.2
COc1ccc(-c2ccc([C@@H]3[C@H](CO)N4C(=O)CNC[C@@H]34)cc2)cc1,0,11,-10
CN(C)C(=O)c1ccc(-c2ccc([C@@H]3[C@@H](C#N)N(C(=O)C4CC4)[C@H]3CO)cc2)cc1,-1,5,-6.9
CCNC(=O)Nc1ccc2c(c1)C(=O)N(C)[C@H]1CC[C@H](CC(=O)NCCOC)O[C@H]1CO2,-1,-7,5.3
COCC(=O)N1CC2(CCN(Cc3ccccc3Cl)CC2)c2c([nH]c3cc(OC)ccc23)[C@H]1CO,-5,-9,4.1
COCC(=O)N(C)C[C@H]1Oc2cc(-c3ccc(OC)cc3)ccc2S(=O)(=O)N([C@H](C)CO)C[C@@H]1C,1,5,-4.0
COc1ccccc1-c1ccc([C@@H]2[C@@H](CO)N(C(=O)C3CCC3)[C@H]2C#N)cc1,5,2,2.9
CC(=O)NC[C@@H]1[C@@H](c2ccc(C3=CCCC3)cc2)[C@@H](CO)N1C(=O)CN(C)C,-1,-2,0.4
Cc1ccccc1-c1ccc([C@@H]2[C@H]3CN(S(C)(=O)=O)CC(=O)N3[C@H]2CO)cc1,3,-2,4.8
O=C(NC1CCCC1)N1CC(=O)N2[C@H](CO)[C@H](c3ccc(-c4cccnc4)cc3)[C@@H]2C1,20,6,14
COc1ccccc1CNC(=O)C[C@@H]1CC[C@H]2[C@@H](COC[C@@H](O)CN2C(=O)Nc2ccc(Cl)cc2)O1,3,-3,6.5
O=C(C[C@@H]1CC[C@H]2[C@@H](COC[C@H](O)CN2CCc2ccccc2)O1)NCc1ccc(Oc2ccccc2)cc1,?,.,.
O=C([C@H]1N[C@H]2c3ccc(-c4ccc(F)cc4)c(=O)n3C[C@H]2[C@@H]1CO)N1CCc2ccccc2C1,-6,2,-8.2
C[C@@H]1CN([C@@H](C)CO)C(=O)c2cc(C#Cc3ccccc3F)cnc2O[C@H]1CN(C)C(=O)C1CCC1,-3,-3,-0.5
CN(C)C(=O)c1cc2c(c(-c3cccc(C4=CCCCC4)c3)n1)[C@H](CCO)N(S(C)(=O)=O)C2,?,.,.
CC(C)[C@H]1COCc2cnnn2CCC[C@H](C)C(=O)N1,-1,-1,-0.3
